Calb FLC: C. albicans growth inhibition with fluconazole, primary screen, CaCi-2 strain, Alamar Blue fluorescence | C. albicans CaCi-2 (fluconazole-resistant clinical isolate) + fluconazole, 48 h | growth inhibition, % (no concentration beside the values) | actives 0.57% (n = 300,000);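 active means most replicates above 75%; inconclusive means exactly half above 75%; inactive means most below 75%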;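 further: all wells also contain fluconazole at 8 µg/ml as a sub-toxic cotreatment; 0% = median of DMSO wells and 100% = median of geldanamycin control wells; wells of about 8 µL received 7.5 nL stock; the first replicate is given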
Beta cell apopt: inhibitors of cytokine-induced beta cell apoptosis, primary screen, luminescence. INS-1E cytokine-induced death, ATP luminescence, 48 h; percent of positive-control rescue, neutral wells zero. protection from apoptosis, % (test concentration not listed). actives 0.8% (n = 300,000);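 active means all replicates at 75% or more, or half of them and the mean; inconclusive means half reach 75% but not the mean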;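 further: 0% = cytokine-treated negative control wells and 100% = positive control rescue; higher means more ATP so stronger rescue from cytokine killing; wells of about 40 µL received 100 nL stock; the first replicate is given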
ALR H2O2 inh: inhibitors of human ALR sulfhydryl oxidase, primary screen, biochemical, H2O2 detection, HRP-luminol luminescence, single point | FAD-linked sulfhydryl oxidase ALR (Homo sapiens), P55789 | purified ALR, DTT oxidation | inhibition, % (no concentration beside the values) | actives 3.8% (n = 290,000);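 active means mean and each replicate at 75% or more; inconclusive means only one of the two met; inactive means neither met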;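 further: stock transfer was 7.5 nL into about 7.5 µL; 0% = neutral wells and 100% = wells with inactivated enzyme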
Target sequence (P55789 whole entry, looked up): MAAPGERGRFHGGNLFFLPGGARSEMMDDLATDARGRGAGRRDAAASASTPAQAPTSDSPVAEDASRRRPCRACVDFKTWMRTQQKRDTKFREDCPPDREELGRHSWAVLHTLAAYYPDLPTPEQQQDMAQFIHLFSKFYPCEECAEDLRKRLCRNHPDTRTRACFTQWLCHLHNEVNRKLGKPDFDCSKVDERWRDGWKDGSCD
LANA-H2B inh: blockers of LANA interaction with H2A/H2B – biochemical, FP readout, HTS, primary screen; Protein LANA1 (Human herpesvirus 8 type P (isolate GK18)), Q9QR71; cell-free LANA-H2A/H2B peptide, fluorescence polarization; inhibition, % (concentration not given with the values); actives 0.6% (n = 320,000); in the data active means inhibition mostly above about 10%, no sharp cut-off; inactive means mostly below about 6.7%;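 further: stock transfer was 7.5 nL into about 10 µL; 0% = median of vehicle wells and 100% = median of positive control wells; one replicate is shown; the record names a cut of 25% in any replicate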
T cruzi inh: inhibitors of intracellular T. cruzi growth, primary screen, luminescence, NIH3T3 host cells; T. cruzi beta-gal in NIH3T3, 90 h; inhibition, % (test concentration not listed); actives 1.4% (n = 300,000); AID 1885, 2009;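 active means mean inhibition across valid replicates above about 55%, limit read from the data; inconclusive means mean below that limit but half or more replicates reach it; inactive means mean below it, under half of replicates reach it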;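 further: signal also drops with host cell toxicity which is not excluded here; 0% = plate median of DMSO wells and 100% = zero luminescence signal; higher percent means less beta-gal luminescence so fewer parasites; stock transfer was 50 nL into about 50 µL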
B2AR ag: beta2AR agonists driving receptor internalization, primary screen, cell-based, FAP fluorogen, flow cytometry; Beta-2 adrenergic receptor (Homo sapiens), P07550; Am2.2-beta2AR cells; reference of the scale not given here; response, % (test concentration not listed); actives 0.43% (n = 340,000); AID 504454, 2011;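 active means response above a set limit, near 3 SD of response in nonfluorescent compounds, cut at about 42% in these data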;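 further: stock transfer was 100 nL into about 11 µL; a reference agonist was the positive control; negative values mostly stem from fluorescent compounds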
Target sequence (P07550 whole entry, looked up): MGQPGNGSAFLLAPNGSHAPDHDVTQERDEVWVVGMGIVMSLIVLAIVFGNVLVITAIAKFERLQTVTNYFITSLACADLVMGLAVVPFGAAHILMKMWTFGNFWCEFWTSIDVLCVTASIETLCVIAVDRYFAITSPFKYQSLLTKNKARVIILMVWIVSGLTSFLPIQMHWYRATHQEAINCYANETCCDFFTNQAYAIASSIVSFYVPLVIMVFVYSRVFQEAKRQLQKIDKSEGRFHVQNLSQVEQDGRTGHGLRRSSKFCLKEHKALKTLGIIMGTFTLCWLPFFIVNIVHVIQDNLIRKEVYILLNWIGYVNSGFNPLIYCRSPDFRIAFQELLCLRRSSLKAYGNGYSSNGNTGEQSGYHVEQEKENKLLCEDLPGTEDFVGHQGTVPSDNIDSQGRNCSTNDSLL
A1 inh: caspase 3/7 activation in MEF A1-2A-BIM cells, primary screen, A1 inhibitor project, cell-based, luminescence, HTS; Caspase-Glo 3/7 luminescence, 3 h; percent of clofoctol response, vehicle zero; caspase activation, % (test concentration not listed); actives 0.066% (n = 330,000); AID 2462, 2010;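 active means over half of replicate activation scores above 10%, or exactly half above 10 with the replicate mean above 10; inconclusive means replicate mean below 10 yet half the replicates above 10; inactive means over half of replicates below 10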;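 further: wells of about 30 µL received 50 nL stock; many hits fall short of the cut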
rRNA inh HTS: reduced GFP signal of wild-type E. coli, primary screen, bacterial rRNA inhibitor project, GFP/RFP fluorescence, OD600, single point. E. coli WT GFP vs humanized-ribosome RFP mutants, 24 h; stronger effect = lower value; DMSO median 0, no signal -100. GFP signal change (wild-type ribosome), % (concentration not given with the values). actives 1.6% (n = 350,000). AID 720706, 2013;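 active means significant combined selectivity score with lowered wild-type GFP, culture density cut under 30%, mutant RFP and density less affected; inactive means any of these conditions unmet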; further: one replicate is shown; some compounds called inactive have numbers as strong as hits
rRNA inh HTS OD600: second read-out of rRNA inh HTS, no call of its own (marks repeat the call); OD600 change, %; measured here: OD600 growth;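 optical density of the mix in the first replicate; 0 = DMSO median and -100 = no signal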
rRNA inh HTS RFP: further read-out of rRNA inh HTS, marked with its call; RFP signal change, %; measured here: RFP humanized mutant strains;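 first replicate; 0 = DMSO median and -100 = no signal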
Starred values were filed as active, the others as inactive; & = joins results of further samples. These rows are one share of the data; rates above refer to the full screens.

CCCCN(CCCC)CCCNC(=O)C1CC(c2cc(C(F)(F)F)cc(C(F)(F)F)c2)=NO1 (configuration not stated) was read as Calb FLC 7, Beta cell apopt -1, ALR H2O2 inh -9, LANA-H2B inh 3.6, T cruzi inh -12, B2AR ag 4, A1 inh 0.1, rRNA inh HTS 9, rRNA inh HTS OD600 1 and rRNA inh HTS RFP -1.6.
Screening Cc1nccn1CC(=O)c1ccc(O)c(O)c1 returned Beta cell apopt -7, ALR H2O2 inh 87*, LANA-H2B inh 4.7, B2AR ag -5, A1 inh -0.4, rRNA inh HTS 1, rRNA inh HTS OD600 2 and rRNA inh HTS RFP 1.5.
For Cc1cc(C)n2nc(SCC(=O)NCc3ccco3)nc2n1 the results were Calb FLC -17, Beta cell apopt 3, ALR H2O2 inh -7, LANA-H2B inh -3.8, T cruzi inh -9, B2AR ag 6 and A1 inh -0.4.
COc1ccc(C)cc1NS(=O)(=O)c1cccc2nonc12 was read as Calb FLC -3, Beta cell apopt 1, ALR H2O2 inh -2, LANA-H2B inh -0.1, T cruzi inh -4, B2AR ag 3 and A1 inh 1.2.
CC[C@H](C)[C@H](NC(=O)c1ccccc1)C(=O)NC(CC(=O)O)c1ccc(F)cc1 (some centres not stated) was read as Calb FLC -6, Beta cell apopt -9, ALR H2O2 inh -2, LANA-H2B inh 2.4, T cruzi inh -7, B2AR ag -6, A1 inh 0.2, rRNA inh HTS 22, rRNA inh HTS OD600 22 and rRNA inh HTS RFP 1.3.
For O=C(NCc1ccc(F)cc1)C(c1cccs1)N(C(=O)c1csnn1)C1CC1 (configuration not stated) the results were Calb FLC 13, Beta cell apopt 20, ALR H2O2 inh -30, LANA-H2B inh 2.1, T cruzi inh 0, B2AR ag 0 and A1 inh 1.0.
For Cc1ccc(S(=O)(=O)NCC(=O)N2CCN(c3ccccc3F)CC2)cc1 the results were Calb FLC 6, Beta cell apopt -5, ALR H2O2 inh -10, LANA-H2B inh 0.6, T cruzi inh -1, B2AR ag 1 and A1 inh -0.9.
Screening CCOC(=O)CNc1nc(C(C)(C)C)nc2c1nnn2Cc1ccccc1Cl returned Calb FLC 2, LANA-H2B inh -0.1, T cruzi inh 61*, B2AR ag 0 and A1 inh -0.4.
CC(=O)c1c(C)[nH]c(C(=O)CN(C)CC(=O)Nc2ccccc2Cl)c1C was read as Beta cell apopt -9, ALR H2O2 inh 2, LANA-H2B inh -6.1, B2AR ag 7, A1 inh -0.9, rRNA inh HTS -14, rRNA inh HTS OD600 -11 and rRNA inh HTS RFP 8.2.
`CC(C)c1ccc(NS(=O)(=O)c2ccc3c(c2)oc(=O)n3C)cc1` gave Calb FLC -5, ALR H2O2 inh -3, LANA-H2B inh 2.7, T cruzi inh 2, B2AR ag 3, A1 inh 0.9, rRNA inh HTS -18, rRNA inh HTS OD600 -14 and rRNA inh HTS RFP -1.3.
`CCOc1ccc(S(=O)(=O)n2ccc(C)n2)cc1` gave Calb FLC 27, Beta cell apopt -1, ALR H2O2 inh 1, LANA-H2B inh 2.5, T cruzi inh -7, B2AR ag -8, A1 inh -0.2, rRNA inh HTS 10, rRNA inh HTS OD600 10 and rRNA inh HTS RFP 3.4.
For O=C(Nc1cccc(-c2ccc(N3CCOCC3)nn2)c1)c1ccccc1Cl the results were Calb FLC 9, Beta cell apopt -3, LANA-H2B inh -0.7, T cruzi inh -6, B2AR ag 12, A1 inh -3.8, rRNA inh HTS -6, rRNA inh HTS OD600 -2 and rRNA inh HTS RFP 1.3.
O=C(Nc1ccccc1C(=O)N1CCCCC1)NC1CCCCC1 was read as Calb FLC 10, Beta cell apopt -3, ALR H2O2 inh -6, LANA-H2B inh -3.3, T cruzi inh -11, B2AR ag 5, A1 inh -0.6, rRNA inh HTS 9, rRNA inh HTS OD600 0 and rRNA inh HTS RFP -1.2.
Cc1ccc(NC(=O)CN2C(=O)NC(C)(CCc3ccccc3)C2=O)cc1 (configuration not stated) was read as Calb FLC 5, Beta cell apopt -12, ALR H2O2 inh -4, LANA-H2B inh -1.8, T cruzi inh 8, B2AR ag 8, A1 inh 1.2, rRNA inh HTS -12, rRNA inh HTS OD600 -11 and rRNA inh HTS RFP 1.1.
Screening COc1cccc(OC)c1C(=O)NC(=S)Nc1ccc2c(c1)OCCO2 returned Calb FLC -9, Beta cell apopt 3, ALR H2O2 inh -7, LANA-H2B inh -7.5, T cruzi inh 3, B2AR ag 1, A1 inh 0.0, rRNA inh HTS -14, rRNA inh HTS OD600 -17 and rRNA inh HTS RFP -2.7.
For COc1ccc(S(=O)(=O)Nc2cccnc2)c(Cl)c1Cl the results were Calb FLC 52, Beta cell apopt -8, LANA-H2B inh 13*, T cruzi inh -8, B2AR ag -2, A1 inh -0.2, rRNA inh HTS 0, rRNA inh HTS OD600 -5 and rRNA inh HTS RFP -3.0.
CC1CC(C)CN(S(=O)(=O)N2CCC(C(=O)NCCc3ccccc3)CC2)C1 (configuration not stated) was read as Calb FLC 1, Beta cell apopt -5, ALR H2O2 inh -1, LANA-H2B inh 5.4, T cruzi inh 9, B2AR ag -3, A1 inh -0.4, rRNA inh HTS 2, rRNA inh HTS OD600 9 and rRNA inh HTS RFP -2.9.
For Cc1ccc(/C=C/c2nc3ccccc3[nH]2)o1 the results were Calb FLC 5, Beta cell apopt -3, ALR H2O2 inh 5, LANA-H2B inh 2.7, T cruzi inh -8, B2AR ag 31, A1 inh -0.6, rRNA inh HTS 27, rRNA inh HTS OD600 10 and rRNA inh HTS RFP 18.
COc1ccc(Cn2cccc(NC(=O)Nc3ccc(C#N)cc3)c2=O)cc1 was read as Calb FLC 6, Beta cell apopt -5, LANA-H2B inh 1.4, T cruzi inh -25, B2AR ag 3 and A1 inh -0.7.
C[C@H](CO)N1C[C@H](C)[C@@H](CN(C)Cc2ccccc2)Oc2c(NS(=O)(=O)c3cn(C)cn3)cccc2C1=O was read as Beta cell apopt 3, ALR H2O2 inh -1, LANA-H2B inh -6.3, B2AR ag -1, A1 inh 0.2, rRNA inh HTS 0&6, rRNA inh HTS OD600 13&1 and rRNA inh HTS RFP -1.0&-4.4.

Random excerpt: three entries already listed, in no set order.
COc1ccc(C)cc1NS(=O)(=O)c1cccc2nonc12 was read as Calb FLC -3, Beta cell apopt 1, ALR H2O2 inh -2, LANA-H2B inh -0.1, T cruzi inh -4, B2AR ag 3 and A1 inh 1.2.
`CC(C)c1ccc(NS(=O)(=O)c2ccc3c(c2)oc(=O)n3C)cc1` gave Calb FLC -5, ALR H2O2 inh -3, LANA-H2B inh 2.7, T cruzi inh 2, B2AR ag 3, A1 inh 0.9, rRNA inh HTS -18, rRNA inh HTS OD600 -14 and rRNA inh HTS RFP -1.3.
CCCCN(CCCC)CCCNC(=O)C1CC(c2cc(C(F)(F)F)cc(C(F)(F)F)c2)=NO1 (configuration not stated) was read as Calb FLC 7, Beta cell apopt -1, ALR H2O2 inh -9, LANA-H2B inh 3.6, T cruzi inh -12, B2AR ag 4, A1 inh 0.1, rRNA inh HTS 9, rRNA inh HTS OD600 1 and rRNA inh HTS RFP -1.6.

Other results follow:
For CN(/N=C/c1ccc(Cl)cc1)c1ncc(Cl)cc1C(F)(F)F the results were Calb FLC -5, Beta cell apopt 6, ALR H2O2 inh 2, LANA-H2B inh -4.1, T cruzi inh 9, B2AR ag 1, A1 inh 0.2, rRNA inh HTS 7, rRNA inh HTS OD600 8 and rRNA inh HTS RFP -1.6.
`CC1C(=O)Nc2ccccc2N1C(=O)c1ccc(O)cc1` (configuration not stated) gave Calb FLC -1, Beta cell apopt -3, ALR H2O2 inh -8, LANA-H2B inh -3.3, T cruzi inh -2, B2AR ag -3, A1 inh 0.1, rRNA inh HTS 7, rRNA inh HTS OD600 5 and rRNA inh HTS RFP -0.9.
`CCOCCCn1c(SCC(=O)Nc2ccc(NC(C)=O)cc2)nc2ccccc2c1=O` gave Calb FLC 2, Beta cell apopt -4, ALR H2O2 inh -5, LANA-H2B inh 1.3, T cruzi inh 5, B2AR ag -2, A1 inh -0.2, rRNA inh HTS 7, rRNA inh HTS OD600 7 and rRNA inh HTS RFP 0.6.
For Cc1ccccc1NC(=O)CNc1ccccc1N1CCCCC1 the results were Calb FLC 1, Beta cell apopt 6, ALR H2O2 inh 87*, LANA-H2B inh -2.3, T cruzi inh 5, B2AR ag 8 and A1 inh -0.1.
COc1cccc(NC(=S)N(CCCN2CCOCC2)Cc2cn(C)c3ccccc23)c1 was read as Calb FLC inconclusive, Beta cell apopt 10, ALR H2O2 inh -2, LANA-H2B inh -5.7, T cruzi inh -8, B2AR ag 5 and A1 inh 0.2.
Cc1ccc(NC(=O)CS(=O)CC(=O)Nc2ccccc2-c2ccc(C)o2)cc1 (configuration not stated) was read as Calb FLC -1, Beta cell apopt -9, ALR H2O2 inh 99*, LANA-H2B inh 0.2, T cruzi inh -12, B2AR ag -1, A1 inh 0.4, rRNA inh HTS 24, rRNA inh HTS OD600 -8 and rRNA inh HTS RFP 47.
`Nc1nnc(CCS(=O)(=O)c2ccc(Cl)cc2)s1` gave Calb FLC 2, Beta cell apopt -15, ALR H2O2 inh -3, LANA-H2B inh 0.8, T cruzi inh -19, B2AR ag -6 and A1 inh 0.9.
Screening COc1cc(CN2CCCC(CO)(Cc3ccccc3F)C2)ccc1O (configuration not stated) returned Calb FLC 3, Beta cell apopt 5, ALR H2O2 inh 16, LANA-H2B inh -2.8, T cruzi inh 22, B2AR ag -56, A1 inh 0.5, rRNA inh HTS 3, rRNA inh HTS OD600 4 and rRNA inh HTS RFP 0.4.
O=C(CNC(=O)c1ccccc1F)NCCOc1cccc(Cl)c1Cl was read as Calb FLC -1, Beta cell apopt -5, ALR H2O2 inh -4, LANA-H2B inh 5.7, T cruzi inh -9, B2AR ag -5 and A1 inh 0.2.
`Cc1ccc(NC(=O)CSc2nccn2Cc2ccccc2)cc1C` gave Calb FLC 2, Beta cell apopt -5, ALR H2O2 inh 98*, LANA-H2B inh 4.2, T cruzi inh -8, B2AR ag -16 and A1 inh -0.2.

Source: PubChem
